Screening results (PubChem BioAssay)
T. gondii = T. gondii ME49Luc in HeLa cells, luciferase assay, 72 h, no IFN-y (AID 1259421). T. gondii ME49Luc in HeLa, luciferase, 72 h, no IFN-y; stronger effect = lower value; reference of the scale and settings of repeat entries not given here; many of its hits are not listed in these tables. 9.6% of 6,400 active. activity change, negative = inhibition, %;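 active = activity change below -70%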;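 also: about 20 µM from a 10 mM stock diluted 500-fold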
* hit, by the source's call; & = joins results of further samples. Some of the compounds tested; count on the stated rates, not on these rows.

SMILES	T. gondii
CC[C@H]1OC(=O)[C@H](C)[C@@H](O[C@H]2C[C@@](C)(OC)[C@@H](O)[C@H](C)O2)[C@H](C)[C@@H](O[C@@H]2O[C@H](C)C[C@H](N(C)C)[C@H]2O)[C@](C)(O)C[C@@H](C)C(=O)[C@H](C)[C@@H](O)[C@]1(C)O	-9&-5&3
CC(=O)Oc1ccc2c(c1C(C)C)CCC1C(C)(C)CCC[C@]21C (some centres not stated)	-4
NCc1c[nH]c(=S)n1[C@H]1CCc2c(F)cc(F)cc2C1	-3
CC12CCC3c4ccc(OC(=O)c5ccccc5)cc4CCC3C1CCC2O (configuration not stated)	-16
C[C@]12CCC3c4ccc(O)cc4CCC3C1CC[C@@H]2OC(=O)CCC1CCCC1 (some centres not stated)	3&-65
CCNC(=O)CCC/C=C/C[C@@H]1[C@H](C=C[C@H](O)CCc2ccccc2)[C@@H](O)C[C@@H]1O	-2
CC(C)OC(=O)CCC/C=C\C[C@@H]1[C@@H](CC[C@@H](O)CCc2ccccc2)[C@H](O)C[C@@H]1O	3
CN(C(=O)C(Cl)Cl)c1ccc(OC(=O)c2ccco2)cc1	6&1
CCCCCCCCN1C(=O)C(C(C)=O)=C(C)C1(C)O (configuration not stated)	12
CN1CCN(C2=Nc3ccccc3Sc3ccc(Cl)cc32)CC1	13&15
C[C@H]1O[C@@H](O[C@H]2[C@@H](O)C[C@H](O[C@H]3[C@@H](O)C[C@H](O[C@H]4CC[C@]5(C)C6CC[C@]7(C)[C@@H](C8=CC(=O)OC8)CC[C@]7(O)C6CC[C@@H]5C4)O[C@@H]3C)O[C@@H]2C)C[C@H](O)[C@@H]1O (some centres not stated)	-93*
Cc1cc(C(C)(C)C)c(O)c(C)c1CC1=NCCN1	2&-4
NC(=O)C(c1ccccc1)(c1ccc(F)cc1)c1ccc(F)cc1	2
Cc1ccc2c(Br)cc(Br)c(OC(=O)c3ccccc3)c2n1	-90*
Cn1cc(CNCC2CCN(c3ncc(C(=O)NO)cn3)CC2)c2ccccc21	-88*
C=C1c2c(Cl)ccc(O)c2C(=O)C2C(=O)[C@]3(O)C(=O)C(C(N)=O)C(=O)[C@@H](N(C)C)[C@@H]3[C@@H](O)[C@H]12 (some centres not stated)	7&-10
CCc1nn(CCO)c(CC)c1Oc1cc(C#N)cc(C#N)c1	0
CN(Cc1ccccc1)C(=O)C(Cc1ccc2ccccc2c1)NC(=O)C1CCCN1C(=O)Nc1ccccc1[N+](=O)[O-] (configuration not stated)	1
O=c1cc(-c2ccccc2)oc2c(O)c(O)ccc12	-86*
COc1cc(/C=C/C(=O)N2CCN(CC(=O)NC(C)C)CC2)cc(OC)c1OC	-1
NC(Cc1ccccn1)c1ccccc1 (configuration not stated)	13
O=C(/C=C/c1ccccc1)NC(NC(=S)Nc1ccc(Cl)cc1)C(Cl)(Cl)Cl (configuration not stated)	-83*
CCOc1cc2ncc(C#N)c(Nc3ccc(F)c(Cl)c3)c2cc1NC(=O)/C=C/CN(C)C	-84*
O=C(O)c1ccc2nc(-c3cc(Cl)cc(Cl)c3)oc2c1	84
CO/N=C(\C(=O)N[C@@H]1C(=O)N2C(C(=O)OCOC(=O)C(C)(C)C)=C(/C=C\c3scnc3C)CS[C@H]12)c1csc(N)n1	19&13

Shown with bars between the fields: part of the list above.
SMILES | T. gondii
NCc1c[nH]c(=S)n1[C@H]1CCc2c(F)cc(F)cc2C1 | -3
CC12CCC3c4ccc(OC(=O)c5ccccc5)cc4CCC3C1CCC2O (configuration not stated) | -16
C[C@]12CCC3c4ccc(O)cc4CCC3C1CC[C@@H]2OC(=O)CCC1CCCC1 (some centres not stated) | 3&-65
CCNC(=O)CCC/C=C/C[C@@H]1[C@H](C=C[C@H](O)CCc2ccccc2)[C@@H](O)C[C@@H]1O | -2
CC(C)OC(=O)CCC/C=C\C[C@@H]1[C@@H](CC[C@@H](O)CCc2ccccc2)[C@H](O)C[C@@H]1O | 3
CN(C(=O)C(Cl)Cl)c1ccc(OC(=O)c2ccco2)cc1 | 6&1

Next section:
SMILES	T. gondii
CN(C)CCc1c[nH]c2ccc(CS(=O)(=O)N3CCCC3)cc12	-2
CCCCOc1cc(CC2CNC(=O)N2)ccc1OC (configuration not stated)	-21&8
COc1ccc2c(c1)OCC(Cc1ccc(O)c(OC)c1)C2=O (configuration not stated)	0
CNC(=O)c1c(I)c(C(=O)NCC(=O)Nc2c(I)c(C(=O)O)c(I)c(C(=O)NCCO)c2I)c(I)c(N(C)C(C)=O)c1I	8
CCOC(=O)c1ccc(O)cc1	10&17
CO[C@H]1C=CO[C@@]2(C)Oc3c(C)c(O)c4c(O)c(c5c(nc6cc(C)ccn65)c4c3C2=O)NC(=O)/C(C)=C\C=C/[C@H](C)[C@H](O)[C@@H](C)C(O)[C@@H](C)[C@H](OC(C)=O)[C@@H]1C (some centres not stated)	2
OC1(c2ccc(Cl)cc2)CCNCC1	14
CS(=O)(=O)NC(=O)CCC/C=C\C[C@H]1C(=O)C[C@@H](O)[C@@H]1/C=C/[C@@H](O)COc1ccccc1	0
CC(=O)NCC(=O)N[C@H](CCC(=O)O)C(=O)O	7
CCCCCc1c2c(cc(O)c1C(=O)O)OC(=O)c1c(cc(OC)cc1C(=O)CCCC)O2	6
COc1cc(OC2CCN(C)CC2)ccc1Nc1ncc2c(n1)n(C1CCCC1)c(=O)n2C	-32
O=C(O)C1CCC(c2cc3cccnc3c(-c3cccc(F)c3)n2)CC1 (configuration not stated)	20
O=C(/C=C/c1ccc(O)c(O)c1)OC(Cc1ccc(O)c(O)c1)C(=O)O (configuration not stated)	3
COc1ccc2c(C)cc(=O)oc2c1	11
CCN(CC)CCOC(=O)C1(c2ccc([N+](=O)[O-])cc2)CCCC1	9&9
CCN1CCC[C@H]1CNC(=O)c1c(O)c(Cl)cc(Cl)c1OC	7&4
CC1=C(SCCO)C(=O)c2ccccc2C1=O	30
COc1c(O)cccc1O	10
CC(SC(=O)c1cccs1)C(=O)NCC(=O)O (configuration not stated)	13
C[C@@H]1CN(CCCn2c3ccccc3c3ccccc32)C[C@H](C)N1	18
COC(=O)C1=CO[C@@H](O[C@@H]2O[C@H](CO)[C@@H](O)[C@H](O)[C@H]2O)[C@@H]2C(CO)=CC[C@H]12	10&8
CCCC(=O)Nc1cccc(NC(=O)c2ccccc2Br)c1	17
Nc1c(S(=O)(=O)O)cc(Nc2cccc3ccccc23)c2c1C(=O)c1ccccc1C2=O	6
C[C@H](C[C@H](N)C(=O)O)C(=O)O	14
O=c1oc(-c2ccc(C(F)(F)F)cc2)nn1Cc1cc(Cl)ccc1O	-13&25

(cont.)
SMILES	T. gondii
C=C(C)[C@@H]1CC[C@]2(C(=O)O)CC[C@]3(C)[C@H](CC[C@@H]4[C@@]5(C)CC[C@H](O)C(C)(C)[C@@H]5CC[C@]43C)[C@@H]12	1&-17
FC(F)c1nc2ccccc2n1-c1nc(N2CCOCC2)nc(N2CCOCC2)n1	-17
COc1cc(C=O)c([N+](=O)[O-])cc1OC	13&13
CC(C)(C)N1CCC(c2ccccc2)(c2ccccc2)CC1	14
Nc1ccc2cc3ccc(N)cc3nc2c1	-29
CC(C)CC(NC(=O)OCC1c2ccccc2-c2ccccc21)C(=O)O (configuration not stated)	-5
C=CCN1CCN(c2nc3ccccc3nc2C#N)CC1	6&-7
CN(C)CCOc1ccc(/C(=C(/CCCl)c2ccccc2)c2ccccc2)cc1	-85*
OC(CCl)CN1CC[N+]2(CC1)CC[N+]1(CCN(CC(O)CCl)CC1)CC2 (configuration not stated)	10
Cc1ccc(NC(=O)c2cccc(C(C)(C)C#N)c2)cc1Nc1ccc2ncn(C)c(=O)c2c1	-4
CC(C)(Oc1ccc(C2CC2(Cl)Cl)cc1)C(=O)O (configuration not stated)	0&7
Cc1cccc(C)c1NC(=O)CN1CCCCCC1	7
C(=C\c1ccccc1)/CN1CCN(C(c2ccccc2)c2ccccc2)CC1	52&44
Cn1ccc2cc(NC(=O)Nc3cccnc3)ccc21	-14&23
Cc1cccc(-c2[nH]ncc2-c2ccc3ncccc3n2)n1	-16
COc1cc(S(C)=O)ccc1-c1nc2ncccc2[nH]1 (configuration not stated)	19&-7
Cc1ccc([N+](=O)[O-])cc1S(=O)(=O)N(C)/N=C/c1cnc2ccc(Br)cn12	-80*
O=S(=O)(O)Oc1ccc(C(c2ccc(OS(=O)(=O)O)cc2)c2ccccn2)cc1	-53
Cc1nccnc1N1CCCCC1	10
C[C@@H]1CN(c2c(F)c(N)c3c(=O)c(C(=O)O)cn(C4CC4)c3c2F)C[C@H](C)N1	10&15
C[C@]12CCC3c4ccc(OC(=O)c5ccccc5)cc4CCC3C1CC[C@@H]2O (some centres not stated)	-85*
CCCC(=O)Nc1ncnc2c1ncn2C1O[C@@H]2COP(=O)(O)O[C@H]2[C@H]1OC(=O)CCC (some centres not stated)	18
CN(C)C(N)=NCCC[C@H](N)C(=O)O	3
O=C1NC(O)CCN1[C@@H]1O[C@H](CO)[C@@H](O)[C@H]1O (some centres not stated)	-6
O=c1c(OC2OC(CO)C(O)C(O)C2O)c(-c2ccc(O)c(O)c2)oc2cc(O)cc(O)c12 (configuration not stated)	-1

More results follow:
SMILES	T. gondii
COc1cc2c(cc1OC)CC(=O)N(CCCN(C)C[C@@H]1Cc3cc(OC)c(OC)cc31)CC2	14
CSc1ccc(OCc2ncc([N+](=O)[O-])n2C)cc1	24
C[C@H]1[C@H](C)CC[C@]2(C(=O)O)CC[C@]3(C)C(=CC[C@@H]4[C@@]5(C)CC[C@H](O)C(C)(C)[C@@H]5CC[C@]43C)[C@H]12	-77*
c1ccc(Cn2c(N3CCNCC3)nc3ccccc32)cc1	6
CC[C@H](C)[C@H](NC(=O)[C@H](Cc1ccc(O)cc1)NC(=O)[C@@H](NC(=O)[C@H](CCCN=C(N)N)NC(=O)[C@@H](N)CC(=O)O)C(C)C)C(=O)N[C@@H](Cc1cnc[nH]1)C(=O)N1CCC[C@H]1C(=O)O	8
CC(N)CCCC(C)(C)O (configuration not stated)	3
CN=C(NC#N)NCCSCc1csc(N=C(N)N)n1	9&21
O=C(O)c1ccc(OCCn2ccnc2)cc1	-29
COc1cc(COc2cc(N)c(Cl)cc2C(=O)CCC2CCN(CCNS(C)(=O)=O)CC2)cc(OC)c1	21&-35
CC(=O)Nc1nc2c(Oc3cc(-c4ccc(C(F)(F)F)cc4)ncn3)cccc2s1	25
CC(=O)Oc1cc2c(s1)CCN(C(C(=O)C1CC1)c1ccccc1F)C2 (configuration not stated)	21
COc1cc(O)c2c(=O)cc(C)oc2c1CC=C(C)C	20
Nc1nc(Nc2ccccc2)nc2c1ncn2[C@@H]1O[C@H](CO)[C@@H](O)[C@H]1O	9
CCCCCCCCCCCCCCOS(=O)(=O)O	9
CCN(CC)CCOCCOC(=O)C(CC)(CC)c1ccccc1	22
Cc1ccc2c(Cl)cc(Cl)c(O)c2n1	-84*
COc1ccc(/C=C/c2cc(O)cc(O[C@@H]3O[C@H](CO)[C@@H](O)[C@H](O)[C@H]3O)c2)cc1	12
c1ccc2cc(C3=NCCN3)ncc2c1	-25&4
OC[C@@H](O)C(O)[C@@H](O)CO (some centres not stated)	8
CN(C)CCCSC(=N)N	12&20
Nc1ncnc2c1ncn2[C@@H]1O[C@H](CO)C[C@H]1O	20
Nc1ncnc2c1C(=O)N(c1ccc(C3CCC(CC(=O)O)CC3)cc1)CCO2 (configuration not stated)	6
Cn1cccc1/C=C1\C(=O)NC(=O)c2ccccc21	-4
CCOc1nc2cccc(C(=O)O)c2n1Cc1ccc(-c2ccccc2-c2nn[nH]n2)cc1	-60
Nc1nccc2c1ncn2[C@@H]1O[C@H](CO)C(O)C1O (some centres not stated)	-5

4 of the compounds above, with each value named:
structure: CSc1ccc(OCc2ncc([N+](=O)[O-])n2C)cc1
  T. gondii = 24

structure: CN(C)CCCSC(=N)N
  T. gondii = 12&20

structure: COc1ccc(/C=C/c2cc(O)cc(O[C@@H]3O[C@H](CO)[C@@H](O)[C@H](O)[C@H]3O)c2)cc1
  T. gondii = 12

structure: OC[C@@H](O)C(O)[C@@H](O)CO (some centres not stated)
  T. gondii = 8

Returning to the listing; the 4 compounds before the break are reprinted first.
SMILES	T. gondii
Nc1ncnc2c1C(=O)N(c1ccc(C3CCC(CC(=O)O)CC3)cc1)CCO2 (configuration not stated)	6
Cn1cccc1/C=C1\C(=O)NC(=O)c2ccccc21	-4
CCOc1nc2cccc(C(=O)O)c2n1Cc1ccc(-c2ccccc2-c2nn[nH]n2)cc1	-60
Nc1nccc2c1ncn2[C@@H]1O[C@H](CO)C(O)C1O (some centres not stated)	-5
Cc1cc(Cl)ccc1OCCCC(=O)NO	-90*
NC(N)=NC(=O)c1nc(Cl)c(N2CCCCCC2)nc1N	3
NS(=O)(=O)c1cc(C(=O)O)cc(N2CCCC2)c1Oc1ccccc1	5
O=C(O)Cc1ccc(OCCNC[C@H](O)c2ccccc2)cc1	5&16
CN(Cc1ccccc1)Cc1ccccc1	16
O=C(O)CCC1CCC(c2cc(F)ccc2F)(S(=O)(=O)c2ccc(Cl)cc2)CC1 (configuration not stated)	7
CN(C)C(=O)Nc1cccc(-c2ccc(N(C)C)cc2)c1	27
Cc1ccc(/C=N/NC(=O)c2ccccc2Oc2ccccc2)o1	8
CCC(C)C(=O)OC1CC(C)C=C2C=CC(C)C(CCC(O)CC(O)CC(=O)O)C21 (configuration not stated)	7
Cc1ccc2ccc3ccc(C)nc3c2n1	-95*
COc1cc(/C=C/c2ccc(O)cc2)cc(OC)c1	141
CCCCCCCCCCOc1cc2c(=O)c(C(=O)OCC)c[nH]c2cc1OCC	30
COc1cc(N)c(Cl)cc1C(=O)OCCCN1CCCCC1	0&4
CCCCc1ccc(O)cc1O	13
COc1ccccc1OC(=O)C(C)c1ccc(CC(C)C)cc1 (configuration not stated)	-39
O=C1c2ccccc2-n2c1nc1ccccc1c2=O	-48
O=S(=O)(O)c1ccc(O)cc1	0
O=C(O)c1ccccc1Nc1cccc(C(F)(F)F)c1	6&20
CCN(CC)CCNC(=O)c1ccccc1I	5
Cc1cc(C(C)(C)CC(C)(C)C)ccc1OCCOCC[N+](C)(C)Cc1ccccc1	-2
COC(=O)NC(C)CNc1nccc(-c2cn(C(C)C)nc2-c2cc(Cl)cc(NS(C)(=O)=O)c2F)n1 (configuration not stated)	-71*
